Screening results (PubChem BioAssay)
YopH inh: inhibitors of Yersinia enterocolitica YopH tyrosine phosphatase | inhibition, %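 (about 10 µM by stock and volumes)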 | fluorescence Ex485/Em525 | actives 0.16% (n = 140,000);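 active means inhibition of 50% or more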;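 further: controls were vehicle for no effect and minimum signal wells for full effect; inactives centre near -20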
Arbovirus anti: blocks arbovirus infection. arbovirus infection cell-based antiviral screen. inhibition, % at 10 µM. AID 1251. actives 0.37% (n = 200,000);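 active means inhibition from about 30%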;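 further: bluetongue infection of BSR cells; cell survival read as ATP light after 72 h; 0% = infected wells without compound and 100% = uninfected wells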
Mtb H37Rv: M. tuberculosis H37Rv growth inhibitors, H37Rv strain (AID 1626); inhibition, % at 10 µM, or IC50 in µM where a hit was titrated; actives 0.95% (n = 220,000); M. tuberculosis H37Rv growth inhibition; higher % means a stronger effect;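 active means confirmed in a dose series; inconclusive means inhibition above 80% but not taken into the dose series; inactive means below 80% or under 30% at every dose of the series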;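 further: bacteria incubated seven days before Alamar blue readout; 0% = bacteria only wells and 100% = bacteria with antibiotic wells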
Mtb betalactam: beta-lactam sensitization of Mtb H37Rv; M. tuberculosis H37Rv growth with meropenem, percent inhibition; hits of this screen are not shown here; inhibition, % at 25 µM; actives 0.27% (n = 330,000);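 active means about 74% or more and at least 40 points above the plate without the antibiotic, then above 30% in a dose series; inconclusive means first-round hits that could not be retested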;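 further: growth measured after seven days incubation then overnight dye step; 0% = bacteria only wells and 100% = bacteria with antibiotic; twin plates without the antibiotic show which effects depend on it; some results filed as inactive read as strong as hits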
RecA splice inh: Mtb RecA intein splicing inhibition | AID 2221 | inhibition, %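 (about 9 µM by stock and volumes)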 | cell-free RecA intein splicing, fluorescence | actives 0.75% (n = 290,000); in the data active means inhibition above about 30%; inconclusive means no clear call, values can overlap the other calls;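 further: 0% = vehicle wells and 100% = reference inhibitor control wells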
Target sequence (P9WHJ3 whole entry, looked up, canonical isoform): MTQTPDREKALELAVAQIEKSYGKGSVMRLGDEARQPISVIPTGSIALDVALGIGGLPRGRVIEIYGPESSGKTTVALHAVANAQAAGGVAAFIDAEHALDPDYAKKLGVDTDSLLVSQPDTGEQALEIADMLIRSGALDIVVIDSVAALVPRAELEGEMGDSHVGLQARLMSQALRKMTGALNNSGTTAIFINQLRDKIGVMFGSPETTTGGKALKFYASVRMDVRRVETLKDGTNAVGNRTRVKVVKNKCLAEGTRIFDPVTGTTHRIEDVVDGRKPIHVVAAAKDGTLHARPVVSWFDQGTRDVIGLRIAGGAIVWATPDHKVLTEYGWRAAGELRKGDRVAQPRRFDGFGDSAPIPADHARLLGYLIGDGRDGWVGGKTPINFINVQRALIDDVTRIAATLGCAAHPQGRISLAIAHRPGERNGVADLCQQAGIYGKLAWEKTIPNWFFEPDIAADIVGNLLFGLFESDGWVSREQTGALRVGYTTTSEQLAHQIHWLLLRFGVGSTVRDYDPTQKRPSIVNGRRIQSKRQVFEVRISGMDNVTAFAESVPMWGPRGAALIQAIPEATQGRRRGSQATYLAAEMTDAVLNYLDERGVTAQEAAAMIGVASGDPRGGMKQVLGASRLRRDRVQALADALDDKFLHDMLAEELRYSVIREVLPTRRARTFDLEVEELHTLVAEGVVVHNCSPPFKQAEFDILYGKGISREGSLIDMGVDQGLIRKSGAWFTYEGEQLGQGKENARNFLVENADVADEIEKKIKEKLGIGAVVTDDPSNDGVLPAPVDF
Arbovirus anti repeat: also measured in Arbovirus anti; calls as there; inhibition, %; measured here: 10K subset replicate screen; many hits read low in the repeat;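 first of two repeat runs on a subset; 0% = infected and 100% = uninfected wells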
Numbers without * were called inactive; ? = inconclusive; / = no result given. An excerpt; rates above refer to the full screens.

Start of the listing, in advance, 2 compounds:
SMILES	YopH inh	Arbovirus anti	Mtb H37Rv	Mtb betalactam	RecA splice inh	others
COc1cc(/C=C2/C(=N)N3N=C(CC(=O)N4CCOCC4)SC3=NC2=O)ccc1OCc1ccccc1F	/	/	/	4	0.1
COc1ccc(CN2C(=O)c3cccnc3C2=O)cc1S(=O)(=O)N(C)c1cccc(C)c1	/	/	/	4	-0.5

The whole of this part, from the first entry:
SMILES	YopH inh	Arbovirus anti	Mtb H37Rv	Mtb betalactam	RecA splice inh	others
COc1cc(/C=C2/C(=N)N3N=C(CC(=O)N4CCOCC4)SC3=NC2=O)ccc1OCc1ccccc1F	/	/	/	4	0.1
COc1ccc(CN2C(=O)c3cccnc3C2=O)cc1S(=O)(=O)N(C)c1cccc(C)c1	/	/	/	4	-0.5
COc1ccccc1-n1nnnc1SCC(=O)Nc1oc(C)c2c(C)n[nH]c(=O)c12	/	/	/	-7	0.6
COc1cc(NC(=O)COc2ccc(-n3ccnc3)cc2)cc(OC)c1	/	1	54%	34	5.3
O=C(Nc1ccc(-c2nnc3n2CCCCC3)cc1)c1cnccn1	-21	2	/	/	0.6
COc1ccc(C(=O)NCc2ccccn2)cc1	-24	7	-11%	-2	1.1
Cn1c(=O)c2c(ncn2CC(O)CNc2ccc(Cl)cc2)n(C)c1=O (stereo not given)	-13	13	-7%	-5	-0.9
CCN1C(=O)/C(=c2\s/c(=C3\Sc4ccccc4N3C)c(=O)n2C)N(C)C1=S	/	-5	5%	3	-3.1
COc1ccccc1N=C1SCCCN1C	-11	8	6%	2	-2.6
COC(=O)/C(=N/Nc1cccc(C)c1)N1CCCc2ccccc21	-14	23	4%	3	9.8
CC(=O)C1=C(O)C(=O)N(CCc2ccccc2)C1c1ccccc1[N+](=O)[O-] (stereo not given)	-20	3	-1%	4	-1.8
CCOc1cc(C(=O)N=c2sccn2C)ccc1OC(F)F	/	/	/	4	0.4
O=C(COc1ccccc1)NCC1COc2ccccc2O1 (stereo not given)	/	/	/	8	0.6
COc1ccc(S(=O)(=O)N(C)C)cc1NC(=O)CCNC(=O)c1ccco1	/	/	/	5	-3.6
O=C(NCCCNCc1ccccc1)c1ccccn1	-21	-9	-6%	1	4.3
COC(CNC(=O)c1ccc(N2CCc3ccccc32)c([N+](=O)[O-])c1)OC	-21	8	3%	0	2.6
COc1cc(C(=O)Nc2ccc(S(=O)(=O)Nc3cc(C)nc(C)n3)cc2)cc(OC)c1OC	/	8	-4%	2	-5.6
COc1cccc(NC(=O)C2CC(=O)N/C(=N/NC(=O)c3ccc(C)cc3)S2)c1 (stereo not given)	/	/	-6%	6	-1.5
CS(=O)(=O)N(CC(=O)NCCSCc1ccccc1Cl)c1ccc(F)cc1	/	/	/	-3	-1.1
Cc1nc2nc(C)c(CCC(=O)NC(C)c3ccc4c(c3)OCCO4)c(C)n2n1 (stereo not given)	-12	2	5%	-10	-1.1
CCc1c(C)n2nc(C)cc2[nH]c1=O	-17	4	-6%	-16	-2.8
O=C(CSC1=NS(=O)(=O)c2cc(F)ccc2N1)Nc1ccc(F)cc1	/	/	/	-3	-1.1
Cc1nnc(SCC(C)C)[nH]c1=O	-45	5	8%	2	-7.4
O=C(N/N=C/c1cccnc1)c1ccccc1Br	/	/	/	0	0.4
COc1ccc2[nH]c(C)c(CCN(Cc3cccs3)C(=S)Nc3cccc(F)c3)c2c1	-39	1	16%	9	8.7
Cc1ccc(C)c(S(=O)(=O)N2CCN(C(=O)CCCc3c[nH]c4ccccc34)CC2)c1	/	/	/	-15	4.9
N#CCC(=O)Nc1ncc(Cc2ccccc2Cl)s1	/	-24	6%	-6	1.6
C=CCn1c(SCC(=O)NC(=O)c2cccn2C)nc2ccccc2c1=O	/	2	-1%	2	1.2
O=C(NCc1ccncc1)C1=NN(c2ccccc2)C(=O)CC1	/	-1	-6%	-21	0.9
CCS(=O)(=O)Nc1cc(-c2nc3cccnc3s2)ccc1C	-21	-6	-2%	0	-6.2	Arbovirus anti repeat=-1
CCOC(=O)CSc1nc2sccc2c(=O)[nH]1	-32	9	-7%	-3	-2.1
COc1ccc(CC(=O)NCc2nn(-c3ccccc3)nc2C)cc1OC	/	/	-9%	1	-0.5
O=C(NCCNC(=O)c1ccccc1[N+](=O)[O-])c1ccccc1[N+](=O)[O-]	/	/	/	-8	-0.8
CC(C)Cn1c(=O)c(CCC(=O)Nc2ccc(N3CCOCC3)cc2)nc2cc(Cl)ccc21	/	/	/	-4	-0.9
CCOC(=O)C1(Cc2cccc(OC)c2)CCCN(S(=O)(=O)CC)C1 (stereo not given)	/	/	/	-1	4.2
N/C(=N\OC(=O)c1ccc2c(c1)OCO2)c1ccncc1	/	/	7%	1	-2.1
CCN(C(=O)CSc1nnc(C)n1-c1ccccc1)C1CCS(=O)(=O)C1 (stereo not given)	/	1	-3%	-5	-2.3
CCc1noc(C)c1C(=O)OCC(=O)c1ccccc1OC	/	/	/	?	1.4
COc1ccc(-c2n[nH]c(=S)n2C2CCCCC2)cc1	-39	4	-8%	-8	-1.6
COc1ccc(-c2nnc3ccc(SC)nn23)cc1	-51	-9	16%	13	0.0
COc1ccc(CC(=O)Oc2ccccc2C)cc1S(=O)(=O)N1CCOCC1	/	/	/	-2	-1.0
CC1(C)Cc2c(sc3c2c(=O)n(-c2cccc(Cl)c2)c(=O)n3CC(N)=O)CO1	/	/	-12%	-3	5.5
NC1=NC2(CCCCC2)N(c2cccc(Cl)c2)C(N)=N1	-8	-1	0%	6	0.0
COC(=O)N/N=C(\C)c1ccc2ccccc2c1OC(F)F	-36	2	-2%	5	0.4
COc1cccc(-c2nn(C)c3sc(C(=O)NCc4ccc(C)cc4)cc23)c1	0	2	-5%	8	9.6
Cc1cc(C)cc(OC(=O)CCN2C(=O)C3C4C=CC(C5CC45)C3C2=O)c1 (stereo not given)	/	3	-3%	95	1.5
COc1cccc(/C=N/NC(=O)c2nnn(-c3nonc3N)c2C(C)C)c1	/	/	/	-1	-1.8
CCC(C)[C@@H](C(=O)Nc1ccc(OC)c(OC)c1)N1Cc2ccccc2C1=O (stereo not given in full)	-27	-3	-6%	2	/	Arbovirus anti repeat=2
CCc1c(C)nc2ccc(Br)cc2c1SCCC#N	-13	9	9%	-2	2.4
CCCCn1c(O)c(C(CC)=NCCN2CCCCC2)c(=O)[nH]c1=O	-35	5	-5%	6	-3.1

Next part
SMILES	YopH inh	Arbovirus anti	Mtb H37Rv	Mtb betalactam	RecA splice inh	others
COc1ccc(C2Nc3ccccc3C(=O)N2O)cc1OC (stereo not given)	-56	-13	/	10	0.7
Cc1cc(/C=C2\C(=O)NC(=O)N(c3ccc(Cl)cc3)C2=O)c(C)n1-c1cccc(C(=O)O)c1	/	/	/	4	-0.6
O=C(N/N=C/c1ccc[nH]1)c1cc(-c2cccs2)nc2ccccc12	/	-12	?	56	2.7
CC(C)CCNC(=O)c1cc(S(=O)(=O)N2CCCCC2)ccc1N1CCOCC1	/	/	-1%	-10	-2.7
COc1ccccc1/C=N/NC(=O)C(=O)Nc1ccccc1OC(F)(F)C(F)F	-14	-17	10%	-3	9.3
CC(C)OC(=O)[C@H]1[C@H](c2ccc(Cl)cc2)[C@@](C#N)(C(N)=O)[C@@H]2C=CC(C(N)=O)=CN21	-23	12	-5%	/	2.1
CCCC(=O)Nc1cc(C(=O)O)ccc1S(=O)(=O)c1ccc(C)cc1	-15	0	-2%	-1	-3.0
CCOC(=O)C1(CC2CCCCO2)CCN(Cc2ccc(OC)cc2F)CC1 (stereo not given)	/	-1	2%	-4	/
O=c1oc2ccccc2c(N2CCCCC2)c1[N+](=O)[O-]	-39	3	-3%	-2	2.3
COCCCNS(=O)(=O)c1ccc2c3c(cccc13)C(=O)S2	28	4	3%	-5	-3.9

Looked up by structure from the entries so far, 2 records:
SMILES	YopH inh	Arbovirus anti	Mtb H37Rv	Mtb betalactam	RecA splice inh	others
O=C(Nc1ccc(-c2nnc3n2CCCCC3)cc1)c1cnccn1	-21	2	/	/	0.6
COc1ccc(CC(=O)Oc2ccccc2C)cc1S(=O)(=O)N1CCOCC1	/	/	/	-2	-1.0

Arranged by SMILES length (lowest first): 3 of the compounds above.
SMILES	YopH inh	Arbovirus anti	Mtb H37Rv	Mtb betalactam	RecA splice inh	others
CC(C)CCNC(=O)c1cc(S(=O)(=O)N2CCCCC2)ccc1N1CCOCC1	/	/	-1%	-10	-2.7
Cc1cc(/C=C2\C(=O)NC(=O)N(c3ccc(Cl)cc3)C2=O)c(C)n1-c1cccc(C(=O)O)c1	/	/	/	4	-0.6
CC(C)OC(=O)[C@H]1[C@H](c2ccc(Cl)cc2)[C@@](C#N)(C(N)=O)[C@@H]2C=CC(C(N)=O)=CN21	-23	12	-5%	/	2.1

(list continues)
SMILES	YopH inh	Arbovirus anti	Mtb H37Rv	Mtb betalactam	RecA splice inh	others
COc1cccc(N2CCN(C(=O)CNC(=O)c3sc4ccccc4c3Cl)CC2)c1	/	/	/	4	0.8
Cc1ccc(C(=O)OCC(=O)NC(=O)Cc2ccccc2)c(O)c1	/	/	/	-6	2.9
O=C(C1CC1)N1CCN(c2nc3ccccc3s2)CC1	3	2	-9%	7	-1.4
C/C(=N/Nc1ccccc1C(=O)O)c1cccs1	/	/	/	1	-5.0
Cc1cc(Br)cc(C)c1NC(=O)c1ccccc1[N+](=O)[O-]	-22	-7	-10%	1	1.7
CC1=C(C(=O)N2CCOCC2)C(c2cc(C)cs2)NC(=O)N1 (stereo not given)	1	-3	-3%	8	-3.4	Arbovirus anti repeat=6
CCOC(=O)C1=C(c2ccccc2)N=C2SCC(=O)N2C1c1ccc(OCC)c(OCC)c1 (stereo not given)	-20	-8	8%	2	-6.3
O=C(N(c1ccccc1)c1ccccc1)n1ccnc1	-37	-1	2%	-5	3.4
Cc1cc(NC(=O)C(C)Oc2ccc(Cl)cc2Cl)n(-c2ccccc2)n1 (stereo not given)	-14	-5	30%	-4	8.6
CCCOc1ccc(N2CC(C(=O)Nc3ccccc3OC)CC2=O)cc1 (stereo not given)	-12	-1	42%	?	0.6	Arbovirus anti repeat=-4
Cc1ccc(C(=O)OCC(=O)c2cc(C)n(CC3CCCO3)c2C)cc1 (stereo not given)	/	5	-6%	-4	0.4
O=C(Nc1ccc(N2CCOCC2)c(Cl)c1)c1ccc(Cl)cc1	/	-1	18%	23	2.9
O=C(COc1ccc(Cl)cc1)NNC(=O)c1ccc2c(=O)n3c(nc2c1)CCC3	/	/	/	-11	-0.1
Cc1ccccc1CN1CCN(CC(=O)NCc2ccccc2)C1=O	-24	-3	-12%	?	-0.6
Cc1ccc(-c2nn[nH]n2)o1	6	4	-3%	12	0.7
Cc1ccc(-c2nnc(N(C)C(=O)c3cccnc3)s2)cn1	-8	5	-21%	-4	-1.1
O=C(NCC1CCCO1)C(=O)NCC(c1ccco1)N1CCN(c2ccccc2)CC1 (stereo not given)	-18	-2	-5%	4	-2.8
O=C1NC(c2ccccc2)Oc2ccccc21 (stereo not given)	/	/	/	-2	1.0
CC(C)NC(=O)COC(=O)c1cncc(Br)c1	/	24	5%	-5	2.7
COc1ccc2[nH]c3c(=O)n(CCCCCC(=O)NCCC(C)C)c(=S)[nH]c3c2c1	/	8	-1%	4	-3.5
Cc1cc(C)c(C(=O)C(C)OC(=O)C2=COCCO2)cc1C (stereo not given)	/	/	/	60	0.8
Cc1[nH]n(-c2ccccc2)c(=O)c1C(c1ccc(O)c([N+](=O)[O-])c1)c1c(C)[nH]n(-c2ccccc2)c1=O	4	/	2%	7	86*
Cc1ccc(C2=C(O)c3ccccc3C(=O)C2=O)cc1	/	/	/	20	-2.4
CC(C)CN(CCNC(=O)CC1Oc2ccccc2NC1=O)CC(C)C (stereo not given)	-44	4	-4%	-2	-1.3
Cc1ccc(C2NC(C(=O)O)CS2)cc1 (stereo not given)	/	5	-2%	-1	-7.1
CC1=C(C(=O)Nc2ccc(C)cc2C)C(c2ccc(C)o2)NC(=O)N1 (stereo not given)	1	4	-5%	1	1.3
CC1=NC(C)(C)Cc2cc(C)c(C)cc21	/	-1	-11%	4	-3.8
CCN(Cc1ccccc1)C(c1cc2cc(C)ccc2[nH]c1=O)c1nnnn1CCOC (stereo not given)	-23	1	8%	0	4.8
